# KCNQ2 enhance: potentiators of rat KCNQ2 potassium channel; CHO-K1 KCNQ2, FluxOR thallium flux fluorescence; stronger effect = higher value; B-score at 10 µM; 310,000 compounds, 0.54% hits;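 active means fluorescence ratio B-score at least 3 SD of library B-scores, with initial fluorescence B-score within 3 SD, cut at about 5.3 in these data; same plate scores as AID 2156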;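 further: B-score of peak minus minimum over baseline fluorescence ratio after K+ and Tl+ stimulus; positive B-score means potentiation of KCNQ2 with more thallium influx and brighter signal; only the inactives scoring about 0 or higher are listed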
# Target sequence (O88943 whole entry, looked up): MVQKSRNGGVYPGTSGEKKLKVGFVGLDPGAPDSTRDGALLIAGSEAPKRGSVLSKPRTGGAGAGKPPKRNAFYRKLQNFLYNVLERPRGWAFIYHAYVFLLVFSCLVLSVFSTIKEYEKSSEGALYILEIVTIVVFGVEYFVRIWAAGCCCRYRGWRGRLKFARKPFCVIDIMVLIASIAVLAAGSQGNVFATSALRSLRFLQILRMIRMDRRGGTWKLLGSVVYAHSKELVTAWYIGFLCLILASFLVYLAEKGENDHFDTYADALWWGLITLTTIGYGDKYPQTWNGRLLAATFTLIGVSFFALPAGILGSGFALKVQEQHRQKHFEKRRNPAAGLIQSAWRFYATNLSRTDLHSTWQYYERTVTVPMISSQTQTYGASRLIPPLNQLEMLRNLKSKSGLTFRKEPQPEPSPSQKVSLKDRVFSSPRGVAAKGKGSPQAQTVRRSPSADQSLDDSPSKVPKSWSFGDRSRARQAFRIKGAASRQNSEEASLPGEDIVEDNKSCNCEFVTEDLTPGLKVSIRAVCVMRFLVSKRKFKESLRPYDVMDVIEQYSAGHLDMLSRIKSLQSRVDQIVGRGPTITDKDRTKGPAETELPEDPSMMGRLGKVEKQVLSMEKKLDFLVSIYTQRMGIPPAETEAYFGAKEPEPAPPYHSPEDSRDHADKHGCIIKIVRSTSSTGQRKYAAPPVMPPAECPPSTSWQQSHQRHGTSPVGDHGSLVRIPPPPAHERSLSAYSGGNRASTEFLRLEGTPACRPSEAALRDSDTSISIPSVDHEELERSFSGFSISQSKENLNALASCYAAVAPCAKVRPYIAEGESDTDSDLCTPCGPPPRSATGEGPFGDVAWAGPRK
# KCNQ2 enhance baseline: second read-out of KCNQ2 enhance, no call of its own (marks repeat the call); B-score; compound at 10 µM; measured here: initial fluorescence intensity artifact check;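 brightness before thallium and not channel activity; 0 = typical well and far values either way flag optical interference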
# * = called active by the depositor.
SMILES,KCNQ2 enhance,KCNQ2 enhance baseline
O=C(NC1CCCCC1)OCCN1CCN(Cc2ccccc2)CCC1=O,1.8,2.3
CCc1cccc2c(=O)c(C(=O)NCCN3CCOCC3)c[nH]c12,0.28,-0.85
CCOc1ccccc1NC(=O)Nc1ccncc1,0.86,-0.29
O=[N+]([O-])c1ccc(Cl)c(CN2CCSCC2)c1,0.39,-0.37
CN(CC(=O)Nc1ccc(N2CCOCC2)cc1)C(=O)c1cn(-c2ccccc2)nc1-c1ccccc1,0.7,-1.3
COc1ccc(NC(=O)N2CCC(c3nc(-c4cccs4)no3)CC2)cc1,0.2,-0.13
CC(=O)Nc1ccc([N+](=O)[O-])c(CS(=O)(=O)c2ccc(C)cc2)c1[N+](=O)[O-],0.02,0.15
CCCN(CCC)S(=O)(=O)c1ccc(C(=O)N2CCC(=O)c3ccccc32)cc1,0.1,-1.3
CCOC(=O)c1c(C)noc1-c1ccco1,1.7,0.53
O=C(CCCn1c(=O)oc2ccccc21)N1CCN(c2ccccn2)CC1,0.3,-0.01
O=C(Cn1cc([N+](=O)[O-])cn1)Nc1ccccn1,0.72,0.82
COc1cc2c(cc1O)CC[C@@H]1[C@@H]2CC[C@]2(C)[C@@H](O)CC[C@@H]12,0.3,1.4
CCc1ccc(NC(=O)Cn2nc(C)c([N+](=O)[O-])c2C)cc1,0.55,-2.2
COc1ccc(C2=COc3ccccc3C(=O)N2)cc1,0.19,0.02
O=C(Nc1nc(-c2ccc(S(=O)(=O)N3CCCC3)cc2)cs1)C1COc2ccccc2O1 (stereo unspecified),0.65,-0.51
COc1c(N)c2ccccc2[nH]c1=O,0.83,-1.5
Cc1ccc(-c2ccc(=O)n(CC(=O)Nc3cccc(C(=O)N4CCN(C)CC4)c3)n2)cc1,0.71,0.48
C=CCN1c2ccccc2[C@]23C[C@@H](C(=O)OC)N(C(C)=O)C2=NC(C(=O)OC)=C(C(=O)OC)[C@H]13,0.94,0.15
CCN(CC(=O)Nc1ccc(C)c(F)c1)CC(=O)NC(C)C,0.21,-0.28
Cc1nc(N/C(N)=N/S(=O)(=O)c2ccc([N+](=O)[O-])cc2)nc2ccccc12,0.11,0.46
CCOC(=O)c1c(NC(=O)Cn2c(C)nc3ccccc32)sc2c1CCC2,0.48,0.86
CCOC(=O)C(=O)NN=C(c1ccccc1)c1ccccc1,0.05,0.57
CCCSc1ccc([C@H]2N[C@@](Cc3ccccc3)(C(=O)OC)[C@H]3C(=O)N(CC)C(=O)[C@@H]23)cc1,0.76,-1.1
O=C(CSc1nnc(-c2ccc3c(c2)OCCO3)o1)NC1CCCCC1,0.04,1.1
Cc1ccc(NC(=O)c2cnc(SCC(=O)NCC3CCCO3)n(C)c2=O)cc1C (stereo unspecified),0.2,0.21
Cc1nc2ccccc2n1CC(O)COC1CCCCC1 (stereo unspecified),1,1.6
O=C(CCNC(=O)c1ccccc1Cl)NCC(c1ccco1)N1CCCC1 (stereo unspecified),0.17,-0.54
Cc1ccc(S(=O)(=O)N2CCCCC2C(=O)N(C)c2ccccc2)cc1 (stereo unspecified),0.68,0.4
COc1cccc(C(=O)Oc2ccc(/C=N/NC(=O)c3ccncc3)cc2OC)c1,0.6,0.15
CN(C)C(=O)C#Cc1ccccc1,1.4,1.6
Nc1ccc(C2CCCc3nonc32)c2nonc12 (stereo unspecified),0.7,-1.3
Cc1ccc(S(=O)(=O)Cc2nnnn2-c2ccccc2)cc1,1.4,0.03
COc1ccc(C(=O)NCc2ccc(C(=O)O)o2)cc1,0.14,-0.91
CCN1CCN(c2cc(C)c3cc(NC(=O)c4cnccn4)ccc3n2)CC1,1.8,0.45
CC(=O)Nc1cccc(NC(C)=O)n1,0.92,0.25
CC(OC(=O)C1CC1C)C(=O)Nc1ncc(Cl)cc1Cl (stereo unspecified),0.3,1.2
C=CCc1c(C)nc2cc(-c3ccc(C)cc3)[nH]n2c1=O,1.2,-0.05
COC(=O)C1CCN(C(=O)COc2ccc(Cl)cc2)CC1,0.54,0.55
Cc1ccc(NC(=O)COC(=O)C2CCC2)cc1S(=O)(=O)N1CCCCC1,3,-0.11
COC(=O)[C@H](Cc1ccccc1)NC(=O)c1cc(COc2c(F)cccc2F)on1,1.9,0.01
Cc1c(NS(=O)(=O)c2ccccc2)c(=O)n(-c2ccccc2)n1C,0.37,1.1
Cc1cccc2nc(=S)n(C(=O)c3ccco3)n12,0.48,-0.08
CN(C)c1nc(N(C)C)n(Cc2c(Cl)cccc2Cl)n1,2,-0.02
CSc1ccc(NC(=O)CC(C)=O)cc1,0.45,0.35
O=C(CSc1cccc[n+]1[O-])NN(c1ccccc1)c1ccccc1,0.11,-2.7
NC(=O)C1CCN(C(=O)CC2(CC(=O)O)CCCCC2)CC1,0.36,1.5
Clc1ccc(-c2csc(N3CCSCC3)n2)cc1,1.1,0.06
CCC1(c2ccccc2)NC(=O)N(CC(=O)Nc2ccccc2C(=O)N2CCCCC2)C1=O (stereo unspecified),1.6,-0.25
CC(NC(=O)C(=O)NCc1cccs1)c1ccccc1 (stereo unspecified),2.3,1.9
Cc1cccc(N2CCN(C(=O)CCN3C(=O)C4C5C=CC(C5)C4C3=O)CC2C)c1 (stereo unspecified),1.1,-1.3
Cc1ccccc1OCC(=O)Nc1ccc(C(N)=O)cc1,0.28,-0.13
CCCC1CCC(C(=O)Nn2cnc3ccccc3c2=O)CC1 (stereo unspecified),0.79,1.2
CC(=O)Nc1cc(-c2ccc(Cl)cc2)[nH]n1,2.5,-0.77
COc1ccc(NC(=O)CSc2nnc(NC(=O)c3ccc(S(=O)(=O)N4CCOCC4)cc3)s2)cc1,2,1.9
Cc1nc2ccccc2n1C(C)c1ccccc1 (stereo unspecified),1.3,0.89
Cc1nnc(NC(=O)c2ccc3ccccc3c2)s1,0.65,-0.97
CC(=O)Nc1ccccc1-c1nc2ccc(C(=O)N3CCN(c4ccccc4)CC3)cc2[nH]c1=O,0.5,-3
Cc1cc(C(=O)Cn2nc(C(=O)O)c3ccccc3c2=O)c(C)n1-c1ccc(OC(F)F)cc1,0.16,-0.78
CC(C)(C)NC(=O)C(c1ccncc1)N(C(=O)CNC(=O)c1ccco1)c1ccc2c(c1)OCO2 (stereo unspecified),0.18,-1.8
O=C(Nc1cccc(C(=O)N2CCN(c3ccccc3)CC2)c1)c1ccco1,1.3,1.6

# New compounds follow.
SMILES,KCNQ2 enhance,KCNQ2 enhance baseline
CC(C)(C)C1CCC(=NNc2ncc(C(F)(F)F)cc2Cl)CC1 (stereo unspecified),1.6,1.1
O=C(COC(=O)/C=C/c1ccc(OC(F)F)cc1)NCCN1C(=O)CSC1=O,0.37,-0.52
Cc1ccn(CC(=O)N/N=C/c2cc([N+](=O)[O-])ccc2O)n1,3,0.95
CC1=NC2(CCCc3c2no[n+]3[O-])N(O)C1(C)C (stereo unspecified),1,1
CCCOC(=O)c1ccc(NC(=O)c2nc3nc(C)cc(C)n3n2)cc1,0.6,1
COc1ccccc1NC(=O)Cn1c(C)cc(=O)c2cccc(OC)c21,2.6,0.87
NC(=S)N=Nc1c(O)[nH]c2cc(F)c(F)cc12,0.22,2
COC(=O)C1(C(F)(F)F)N=C(C(F)(F)F)Nc2ccc(Cl)cc21 (stereo unspecified),0.89,-1.2
O=C(NCc1nnc(SCc2ccccc2)n1-c1ccccc1)C12CC3CC(CC(C3)C1)C2,0.53,0.04
CCCOc1ccc(C(=O)Nc2ccc3c(c2)OCO3)cc1,0.61,-1.1
CCOCc1cnc(C)nc1NCC(=O)c1c(C)[nH]c2ccccc12,0.43,-0.33
Cc1ccc2nc(Cl)c(C#N)cc2c1,0.92,0.73
COc1ccc(N/C(=N/c2nc(C)cc(C)n2)NC(=O)Nc2ccc(Cl)c(Cl)c2)c(OC)c1,0.15,-0.77
Cc1cc(C)c(NC(=O)Cn2c([N+](=O)[O-])cnc2C)c(C)c1,1.1,1.1
COc1ccc(-c2nnnn2C)cc1S(=O)(=O)Nc1ccc(C)cc1C,0.37,-0.21

# A different layout for part of the listing above.
Molecule	KCNQ2 enhance	KCNQ2 enhance baseline
Cc1cc(C(=O)Cn2nc(C(=O)O)c3ccccc3c2=O)c(C)n1-c1ccc(OC(F)F)cc1	0.16	-0.78
CC(C)(C)NC(=O)C(c1ccncc1)N(C(=O)CNC(=O)c1ccco1)c1ccc2c(c1)OCO2 (stereo unspecified)	0.18	-1.8
O=C(Nc1cccc(C(=O)N2CCN(c3ccccc3)CC2)c1)c1ccco1	1.3	1.6
CC(C)(C)C1CCC(=NNc2ncc(C(F)(F)F)cc2Cl)CC1 (stereo unspecified)	1.6	1.1
O=C(COC(=O)/C=C/c1ccc(OC(F)F)cc1)NCCN1C(=O)CSC1=O	0.37	-0.52
Cc1ccn(CC(=O)N/N=C/c2cc([N+](=O)[O-])ccc2O)n1	3	0.95
CC1=NC2(CCCc3c2no[n+]3[O-])N(O)C1(C)C (stereo unspecified)	1	1
CCCOC(=O)c1ccc(NC(=O)c2nc3nc(C)cc(C)n3n2)cc1	0.6	1
COc1ccccc1NC(=O)Cn1c(C)cc(=O)c2cccc(OC)c21	2.6	0.87
NC(=S)N=Nc1c(O)[nH]c2cc(F)c(F)cc12	0.22	2
COC(=O)C1(C(F)(F)F)N=C(C(F)(F)F)Nc2ccc(Cl)cc21 (stereo unspecified)	0.89	-1.2
O=C(NCc1nnc(SCc2ccccc2)n1-c1ccccc1)C12CC3CC(CC(C3)C1)C2	0.53	0.04
CCCOc1ccc(C(=O)Nc2ccc3c(c2)OCO3)cc1	0.61	-1.1
CCOCc1cnc(C)nc1NCC(=O)c1c(C)[nH]c2ccccc12	0.43	-0.33
Cc1ccc2nc(Cl)c(C#N)cc2c1	0.92	0.73

# Additional entries follow.
SMILES,KCNQ2 enhance,KCNQ2 enhance baseline
COC(=O)c1ccc(NC(=S)NC(=O)c2c(-c3ccccc3)noc2C)cc1,0.4,0.78
CCCCN(C)CCC(=O)Nc1ccc(F)c(F)c1,0.38,-1.3
Cc1c(C)[n+](=O)c(-c2cccs2)c(C)n1[O-],0.63,-0.73
CCOc1cc(/C=C/c2ccc3cccc([N+](=O)[O-])c3n2)cc(Cl)c1O,0.63,0.21
COc1cc2c(cc1OC)C(c1cc(OC)c(OC)cc1[N+](=O)[O-])N(C(C)=O)CC2 (stereo unspecified),0.99,0.98
O=S(=O)(Nc1ccc2c(c1)OCCO2)c1cnc[nH]1,1.4,0.32
Cc1ccc(OCC(=O)NNC(=O)c2ccc3c(=O)n4c(nc3c2)CCC4)cc1,1.3,1.7
O=C(/C=C/c1c(Cl)nc2ccccn12)N1CCCCC1,1.2,-0.02
CNC(=O)COc1coc(CN2CCN(c3ccccc3OC)CC2)cc1=O,0.31,0.07
CC(=O)Nc1ccc(/C=N/NC(=O)c2cc3ccccc3nc2C)cc1,0.14,-0.64
Cn1nc(-c2ccccc2)cc1NS(=O)(=O)c1ccccc1,1.3,1.5
CS(=O)(=O)N1CC(C(=O)O)Oc2ccc(CC(=O)O)cc21 (stereo unspecified),0.3,-1.4
CN(C)C(=O)COC(=O)c1ccccc1NC(=O)c1ccco1,0.38,0.88
CN1CCN(CCCNC(=O)c2cn(C3CCCCC3)c(=O)c3c2c2ccccc2n3C)CC1,1.8,-0.94
O=C(c1cc2c(cc1Br)OCCCO2)N1CCCCC1,0.65,-1.1
CN(C(=O)COC(=O)c1ccccc1Nc1ccccc1)C1CCS(=O)(=O)C1 (stereo unspecified),1.6,-0.5
COc1ccccc1-c1nc2c3ccccc3nc(=S)n2[nH]1,4.4,0.35
COc1ccccc1NC(=O)CCC(=O)OCc1ccc([N+](=O)[O-])cc1,0.77,1.6
O=C1C(C=NCc2ccncc2)=C(O)c2ccccc21,1.2,-0.51
Cc1cccc(NC(=S)N2CCC(N(C)CC3CCCO3)CC2)c1C (stereo unspecified),1.1,0.95
COc1ccc(C(=O)N2CCN(C(=O)c3ccco3)CC2)cc1,0.69,1.6
CCC(C)NC(=O)C1CCN(CCCc2ccccc2)CC1 (stereo unspecified),0.55,-0.01
COc1ccc(CCNC(=O)C(=O)NCC2OCCN2S(=O)(=O)c2ccccc2)cc1OC (stereo unspecified),0.02,-0.78
COc1cc(-c2noc(-c3ccco3)n2)cc(OC)c1OC,0.12,-0.11
CCC1Oc2ccc(C)cc2N(CC(=O)NCC2CCCO2)C1=O (stereo unspecified),0.17,-0.04
Cc1cc(C)cc(N(C(=O)c2snc(C(N)=O)c2N)C(C(=O)NCC2CCCO2)c2ccc(C)o2)c1 (stereo unspecified),0.62,-1.2
COc1cc(C(c2c(O)nc(SC)[nH]c2=O)c2c(O)nc(SC)[nH]c2=O)cc(OC)c1OC,0.9,0.39
Cc1ccc(S(=O)(=O)NC(N)=NCCc2ccc(Cl)cc2)cc1C,0.63,0.4
CCOc1ccc(N2CC(C(=O)Nc3ccc4c(c3)OCO4)CC2=O)cc1 (stereo unspecified),2.1,0.47
COc1cc(C=O)ccc1OCc1ccncc1,1.6,2.4
CCCn1c(SCc2ccccn2)nc2c1c(=O)n(C)c(=O)n2C,0.86,1
O=C(Cn1c(=O)oc2cc(S(=O)(=O)N3CCCC3)ccc21)NC1CCCCC1,0.22,-0.45
N#Cc1ccc(OCCN2C(=O)NC3(CCSC3)C2=O)cc1 (stereo unspecified),0.03,1.1
COc1ccc(NC(=S)N(CCC(C)C)C(C)c2ccncc2)cc1 (stereo unspecified),0.23,-0.12
COc1ccc(/C=C/c2nc(S(=O)(=O)c3ccccc3)c(N(C)C)o2)cc1,0.15,2.5
c1cc2c(cc1C1CCCN1)OCCCO2 (stereo unspecified),0.19,0.49
CCCN1C2CCCC1CC(NC(=S)NCCCOCC)C2 (stereo unspecified),0.38,-2.2
CCNC(=S)NNC(=O)c1cc(Br)cs1,0.35,-0.65
c1ccc(-c2csc3ncnc(-n4cnc5ccccc54)c23)cc1,0.89,-2.4
CCOCCCNC(=O)c1c(C)[nH]c(C(=O)OCC)c1C,0.4,1.2
COc1ccc(NC(=O)C2CCC(=O)N2)cc1 (stereo unspecified),0.18,-1.2
Cc1ccc(N=C2NC(=O)CS2)cc1C,1.6,-0.16
COc1cc(C(=O)NC(=S)NC(C)C)cc(OC)c1OC,0.39,1.6

# From PubChem

# The list is partial; count on the stated rates, not on these rows.
